Vaccinia pol inh: vaccinia E9 polymerase processive synthesis inhibition; in vitro processive DNA synthesis, absorbance read-out; stronger effect = lower value; some inactives read as strong as hits; normalized absorbance, % (concentration not given with the values); actives 0.94% (n = 46,000); AID 493162;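 active means replicate mean up to 90% and picked by the depositor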;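 further: 100% = median of the test wells of a plate; 100 nL library stock went into each well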
Numbers without * were called inactive. These rows are one share of the data; the hit share may differ from the screen's.

SMILES	Vaccinia pol inh
CCC(C)Nc1cc(C)c(C#N)c2nc3ccccc3n12 (stereo unspecified)	100
O=C(O)c1cnn(-c2nc(-c3ccccc3)cs2)c1C(F)(F)F	97
O=C(c1cccs1)N1CCN(Cc2c(F)cccc2Cl)CC1	112
CCn1c2c(c3cc(C4CCCCC4)ccc31)CCCC2=O	100
CCC(C)NC(=O)/C(=C/c1ccc(F)cc1)c1cccs1 (stereo unspecified)	96
Cn1cnnc1SCc1ccc(-c2csnn2)cc1	101
C(#CC(N1CCOCC1)N1CCOCC1)C1CC1	95
Cc1cc(C)nc(SCC(CSc2nc(C)cc(C)n2)C(=O)O)n1	103
O=C(O)CCN1C(=O)SC(CC(=O)Nc2nccs2)C1=O (stereo unspecified)	101
O=C(c1ccc(Br)cc1)N(Cc1ccco1)C1CCS(=O)(=O)C1 (stereo unspecified)	97
CC(=O)N(CC12CC3CC(CC(C3)C1)C2)C1CC(=O)N(c2cccc(Cl)c2)C1=O (stereo unspecified)	100
Cc1cc(Cl)ccc1OCC(=O)NCC12CC3CC(CC(C3)C1)C2	100
OCc1nc2ccccc2n1CCCOc1ccccc1	96
CCc1cc(=O)oc2cc(C)cc(OCC(=O)c3ccc(F)cc3)c12	94
O=C1CNC(=O)N1/N=C/c1ccc(Cl)cc1Cl	101
O=C(OC(C(=O)c1ccccc1)c1ccccc1)c1cccnc1Cl (stereo unspecified)	99
NC(=O)c1ccsc1NC(=O)c1ccccc1	85
CN(C(=O)CSc1c2c(nc3ccccc13)CCCC2)C1CCCCC1	102
O=S(=O)(Nc1cc(Cl)ccc1Cl)c1cccs1	92
COc1cccc2c1OCC(C(=O)n1cccn1)=C2	104
O=C(NC1CCCc2ccccc21)C1=Cc2cc(Cl)ccc2OC1 (stereo unspecified)	102
CCOc1ccccc1-n1c(O)c(/C=C2\C=Nc3ccccc32)sc1=S	104
COC(=O)CNC(=O)c1cn(-c2ccccc2)nc1-c1ccc(F)cc1	112
CCN1C(=O)CC(c2cc(OC)c(OC)c(OC)c2)Sc2ccccc21 (stereo unspecified)	102
COc1cc(CNC(=O)C2CCCC2)cc(OC)c1OC	100
CCN(C(=O)Cn1c(=O)oc2ccccc21)c1cccc(C(F)(F)F)c1	99
N#Cc1cn(-c2ccccc2)nc1-c1cccs1	104
O=C(OCC(=O)N1CCCCC1)c1ccc(O)cc1	100
Cc1cc(N)n(C2CCOC(C)(C)C2)n1 (stereo unspecified)	102
Nc1sc2c(c1-c1nc3ccccc3[nH]1)CCCC2	98
Cc1ccc(O)c(C(C)(C)C)c1	100
CCOC(=O)NC1C=CS(=O)(=O)C1 (stereo unspecified)	100
CC(C)CCOc1ccc(C(=O)C(C)C)cc1	92
COc1ccc(N(C(=O)C(F)(F)F)C(C(=O)NC2CCCCC2)c2ccc(C)o2)cc1 (stereo unspecified)	102
Nc1c(-c2ccc(F)cc2)cnc2ncnn12	98
C=CCN1C(=O)S/C(=C\c2cn(CC(=O)N3CCOCC3)c3ccccc23)C1=O	100
CCOc1cc(C=C2C(=O)NC(=S)NC2=O)cc(Br)c1OCc1ccc(Cl)cc1	100
O=C(c1c(F)cccc1F)N1CCCCC1Cn1cccc1 (stereo unspecified)	113
Cc1c(-c2nnnn2-c2ccc(F)cc2)cnc2cc3c(cc12)OCO3	84
CC(C)(C)OC(=O)N1C(N)=C(C#N)C2(CCOCC2)c2[nH]c(C(F)(F)F)nc21	99
O=C(Nc1nc2c(s1)Cc1ccccc1-2)C1=COCCO1	87
COc1ccc(-c2ccnc(SCc3ccc(Cl)cc3Cl)n2)cc1	111
CSC1=C(C#N)C(c2ccccc2Cl)C(C(=O)c2cccs2)C(O)(C(F)(F)F)N1 (stereo unspecified)	100
Fc1cc2c(c(CSc3ccc(Cl)cc3)c1)OCOC2	103
CCC(C)c1ccc(NC(=O)COC(=O)/C=C/c2cccs2)cc1 (stereo unspecified)	98
O=C(NCCc1ccc(Cl)cc1)c1cnn(-c2ccc(Cl)cc2)c1C(F)(F)F	101
O=C1OCCC1OC(=O)C1(c2ccc(Cl)cc2)CCCC1 (stereo unspecified)	94
CC(=O)Oc1ccc(-c2coc3cc(OC(C)=O)cc(OC(C)=O)c3c2=O)cc1	93
COC(=O)c1ccc(COc2cc3oc(=O)cc(C)c3cc2Cl)cc1	100
N#Cc1ccc(COC(=O)c2cccnc2Cl)cc1	105
N/C(=N\c1nc(=O)c2ccccc2s1)NC(=O)c1ccc(Cl)c(Cl)c1	100
Cc1nc(=O)c(-c2ccccc2)c(C)n1-c1cccc(/C=C/C(=O)O)c1	103
CN1CCC(N(C)CC(O)COc2ccccc2-c2ccccc2)CC1 (stereo unspecified)	97
CC(C)n1nc(C(C)(C)C)cc1C(C)(C)C	98
CCc1cc(=O)oc2c(C)c(O)ccc12	100
C=CCOc1ccc(CNn2nnnc2N)cc1	92
CCCCN1CCC1C(=O)OC (stereo unspecified)	94
CN1N=C2c3ccccc3CCC2C1c1ccc(F)cc1 (stereo unspecified)	102
CCOC(=O)c1cc(C(=O)OC)c(C)nc1SCC(=O)OC	102
CC(=O)Nc1ccc(Sc2ccc(F)cc2)cc1	106

By substructure: the compounds so far with a cyano group.
SMILES	Vaccinia pol inh
CCC(C)Nc1cc(C)c(C#N)c2nc3ccccc3n12 (stereo unspecified)	100
N#Cc1cn(-c2ccccc2)nc1-c1cccs1	104
CC(C)(C)OC(=O)N1C(N)=C(C#N)C2(CCOCC2)c2[nH]c(C(F)(F)F)nc21	99
CSC1=C(C#N)C(c2ccccc2Cl)C(C(=O)c2cccs2)C(O)(C(F)(F)F)N1 (stereo unspecified)	100
N#Cc1ccc(COC(=O)c2cccnc2Cl)cc1	105

The list continues.
SMILES	Vaccinia pol inh
N#Cc1ccccc1OCC(=O)O	87
O=S(=O)(c1ccc2c(c1)CCO2)N1CC=C(c2ccccc2)CC1	99
CCc1ccc(C(N)CC(=O)O)cc1 (stereo unspecified)	111
COc1ccc2c(=O)c(-c3ccc(OC)c(OC)c3)coc2c1	107
CN(C)C(=O)C12CC3(C)CC(C)(CC(C)(C3)C1)C2	100
CC(C)c1ccc(NC(=O)c2cc(S(=O)(=O)N3CCCC3)cn2C)cc1	102
COc1ccc(CNC(=O)C2CCN(S(C)(=O)=O)CC2)cc1	105
O=C(Cc1ccc2c(c1)OCCCO2)c1ccc(O)cc1O	102
OC(C#CCN1CCCC1)c1ccccc1 (stereo unspecified)	99
Cc1cc(C(F)(F)F)nn1Cc1ccc(C(=O)Nc2ncc(Br)s2)o1	97
CCOc1ccc(C(=O)OCC(=O)N2CCCC2)cc1	110
O=C(/C=C/c1cccs1)Nc1ccc(-c2nc3ccccc3[nH]2)cc1	100
O=C1Cc2cc(S(=O)(=O)N3CCCCC3)ccc2N1	102
O=C(COC(=O)c1ccccc1Br)Nc1ccccc1Cl	81
CNC(=O)C12CC3(C)CC(C)(CC(C)(C3)C1)C2	95
Cc1ccc2[nH]c(=O)c(C3=NN(C(=O)CCC(=O)O)C(c4ccccc4)C3)c(-c3ccccc3)c2c1 (stereo unspecified)	100
COC(=O)Nc1nccs1	97
Cn1c(P(=O)(O)c2ccccc2)nc2ccccc21	100
Cn1c(=O)c2[nH]c(NC3CCCC3)nc2n(C)c1=O	100
COc1ccc(N2C(=O)CSC2c2cccc(OC)c2OC)cc1Cl (stereo unspecified)	96
Cc1nc2cc(NC(=O)c3ccc(N4C(=O)CCC4=O)cc3)ccc2s1	100
CSc1nc2ccc(N)cc2s1	90
O=[N+]([O-])c1cc([As](=O)(O)O)ccc1O	97
Cc1ccc(C=NN2CCN(Cc3ccccc3)CC2)cc1	100
[O-]/[N+](=C\c1ccc(F)cc1)c1ccc(Cl)cc1	99
Cc1cccc(CCNC(=O)c2cc3c(=O)n(C)c4ccccc4c3s2)c1	101
Cc1nc2c(o1)N(c1ccccc1)C(N)=C(C#N)C2c1c(Cl)nn(-c2ccccc2)c1C (stereo unspecified)	100
Cc1cc(-c2ccccc2)nc2cc(C(=O)NCC3CCCO3)nn12 (stereo unspecified)	100
COC(=O)c1ccc(Oc2nc(Nc3ccccc3F)nc(N3CCCCC3C)n2)cc1 (stereo unspecified)	100
CC(=O)Nc1ccc(OCc2c(C)noc2C)cc1	101
O=C(COc1ccccc1C(=O)O)Nc1cccc2ccccc12	104
CCOC(=O)N1CCC(NC(=O)c2cc(C(=O)NCc3ccc(F)cc3)ccc2CO)CC1	104
COC(=O)C(CC(=O)c1ccc(Br)cc1)c1ccccc1 (stereo unspecified)	104
Cc1cccc2c(O)c(/C=C3/C(=O)N(c4ccccc4)NC3c3ccccc3)c(=O)[nH]c12 (stereo unspecified)	100
CNC(C)Cc1ccccc1 (stereo unspecified)	98
COc1ccc(-c2nn(-c3ccccc3)cc2/C=N/O)cc1	100
Cn1nc(CC(=O)Nc2nc(-c3ccccc3)cs2)c2ccccc2c1=O	100
Cc1ccc(C)c(-c2csc(N)n2)c1	105
CCC(=O)N1CCc2cc(S(=O)(=O)CCC(=O)N(C)c3ccc(Br)cc3)ccc21	91
COc1ccccc1CNC(=O)CCn1c(=O)c2ccccc2n(Cc2ccc(F)cc2)c1=O	101
CC(=O)N1CCc2cc(S(=O)(=O)CCC(=O)N3CCc4ccccc43)ccc21	101
O=C1C(Nc2ccccc2)=CC(=O)c2ncccc21	98
CSc1nc2ccc(S(=O)(=O)N3CCCC3)cc2s1	92
Nc1nnnn1N=Cc1ccc(-c2ccc3c(c2)COC3=O)o1	100
Cc1cc(C)c(C#N)c(SCc2cc(=O)[nH][nH]2)n1	100
Nc1cccc(C2=NCCN2)c1	99
COc1ccc(Br)cc1/C=C/C(=O)NCC(=O)O	84
CCOC(=O)N1CCC(n2c(SCC(=O)c3ccccc3)nc3ccccc3c2=O)CC1	93
NC(=O)CS(=O)(=O)c1ccccc1	82
Fc1cccc(NC(=S)NCc2ccc3c(c2)OCO3)c1	98
Cc1ccc(C2=NC3(CCN(C(=O)OC(C)(C)C)CC3)NC2=S)cc1	100
COC(=O)CSc1nc(C)nc2c1c(=O)n(C)c(=O)n2C	96
CC(C)Cn1c(CN(Cc2ccccc2)Cc2ccccc2)nc2c1c(=O)[nH]c(=O)n2C	98
CC(C)/C=C1\CC/C(=C\c2ccc(N(C)C)cc2)C1=O	86
Cc1cn(C(=O)c2ccc(Cl)cc2Cl)c(C)n1	101
CC(=O)N1c2ccccc2NC2=C(C(=O)CC(c3ccccc3F)C2)C1c1ccccc1 (stereo unspecified)	102
CCOc1ccccc1C(=O)N(c1ccccc1)C1C=CS(=O)(=O)C1 (stereo unspecified)	99
COc1ccc(-n2cc(-c3ccccc3)nc2SCC(=O)c2ccccc2)cc1	99
CC(=O)Nc1ccc(N=Cc2cccc3ccccc23)cc1	99
NC(=Nc1cc(Cl)cc(Cl)c1)N1CCN(Cc2ccccc2)CC1	100

In a second layout: seven of the compounds above
SMILES,Vaccinia pol inh
CC(C)/C=C1\CC/C(=C\c2ccc(N(C)C)cc2)C1=O,86
Cc1cn(C(=O)c2ccc(Cl)cc2Cl)c(C)n1,101
CC(=O)N1c2ccccc2NC2=C(C(=O)CC(c3ccccc3F)C2)C1c1ccccc1 (stereo unspecified),102
CCOc1ccccc1C(=O)N(c1ccccc1)C1C=CS(=O)(=O)C1 (stereo unspecified),99
COc1ccc(-n2cc(-c3ccccc3)nc2SCC(=O)c2ccccc2)cc1,99
CC(=O)Nc1ccc(N=Cc2cccc3ccccc23)cc1,99
NC(=Nc1cc(Cl)cc(Cl)c1)N1CCN(Cc2ccccc2)CC1,100

(further entries)
SMILES	Vaccinia pol inh
Oc1ccccc1CNc1ccc(C2CCCCC2)cc1	93
O=C(Nc1nnc(-c2ccc3c(c2)CCCC3)o1)c1ccccc1	99
Cc1ccc2[nH]c(=O)c(CN3CCOCC3)c(-c3ccccc3)c2c1	67*
CC(=O)Nc1ccc2c(c1)C1C=CCC1C(c1cccc(Cl)c1Cl)N2 (stereo unspecified)	100
COC(=O)c1sc2ccccc2c1NC(=O)c1cc(Cl)sc1Cl	100
O=C(/C=C/c1cc2c(cc1Br)OCO2)N1CCN(Cc2ccccc2)CC1	100
CC(N)C(=O)NC(Cc1ccccc1)C(=O)O (stereo unspecified)	100
O=C1C=CC(=O)C(Nc2ccccc2)=C1	96
CC(C)(C)NC(=O)CSc1nc2ccccc2nc1SCC(=O)NC(C)(C)C	100
O=C(NCCn1ccc2ccccc21)C1CCCC1	96
Oc1ccc(Cl)cc1Cc1cc(Cl)ccc1O	98
O=C(O)c1ccc(C2Nc3ccccc3C3C=CCC32)cc1 (stereo unspecified)	10*
C=CCn1c(=S)sc2c(SCC(N)=O)ncnc21	103
CC1CCCC(C)N1C(=O)Cn1cc(/C=C2/C(=O)N(C)c3ccccc32)c2ccccc21 (stereo unspecified)	122
O=c1[nH]c(-c2ccccc2)nnc1/C=C(\O)c1cccs1	88
Cc1ccc(C)n1-n1cnc2scc(-c3ccc(F)cc3)c2c1=O	100
Cc1ccc(O)c(N/C=C2/CCCC2=O)c1	100
CC1=C(C#N)/C(=C/Nc2ccc(F)cc2)CC(=O)N1	116
N#Cc1cc2c(OCC(O)CN3CCN(C(c4ccccc4)c4ccccc4)CC3)cccc2[nH]1 (stereo unspecified)	98
COc1ccc(C(=O)N(CCCCN2C(=O)c3ccccc3C2=O)c2ccc(C)cc2)cc1	100
O=CNc1ncc(-c2nc3ccccc3[nH]2)s1	100
CC(=O)/C(C#N)=C(\N=C\N(C)C)SCc1c(Cl)cccc1Cl	102
COc1ccc(NC(=O)C2CCCN(S(=O)(=O)c3ccc(Br)s3)C2)cc1Cl (stereo unspecified)	103
CCN(CC)CCNc1nc2ccc(Cl)cc2[nH]1	103
CC1CC1C(=O)OCC(=O)c1ccc(Br)cc1 (stereo unspecified)	97
CN1CCN(NC(=O)CN2C(=O)S/C(=C/c3ccc(Cl)cc3)C2=O)CC1	100
O=C(CCCN1C(=O)/C(=C\c2ccco2)SC1=S)Nc1ccc(Cl)cc1	95

Screens: PubChem, ICCB-Longwood Screening Facility, Harvard Medical School
